# Screens (PubChem BioAssay)
# STK33 inh: inhibitors of purified STK33 kinase, primary screen, biochemical, ADP-Glo luminescence, homogeneous, cell-free; Serine/threonine-protein kinase 33 (Homo sapiens), Q9BYT3; MBP phosphorylation; inhibition, % at 10 µM; actives 0.073% (n = 320,000); AID 2661, 2010;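 active = inhibition at or above 25%, using the most active replicate where run in duplicate; inactive = inhibition below 25%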
# Target sequence (Q9BYT3 whole entry, looked up): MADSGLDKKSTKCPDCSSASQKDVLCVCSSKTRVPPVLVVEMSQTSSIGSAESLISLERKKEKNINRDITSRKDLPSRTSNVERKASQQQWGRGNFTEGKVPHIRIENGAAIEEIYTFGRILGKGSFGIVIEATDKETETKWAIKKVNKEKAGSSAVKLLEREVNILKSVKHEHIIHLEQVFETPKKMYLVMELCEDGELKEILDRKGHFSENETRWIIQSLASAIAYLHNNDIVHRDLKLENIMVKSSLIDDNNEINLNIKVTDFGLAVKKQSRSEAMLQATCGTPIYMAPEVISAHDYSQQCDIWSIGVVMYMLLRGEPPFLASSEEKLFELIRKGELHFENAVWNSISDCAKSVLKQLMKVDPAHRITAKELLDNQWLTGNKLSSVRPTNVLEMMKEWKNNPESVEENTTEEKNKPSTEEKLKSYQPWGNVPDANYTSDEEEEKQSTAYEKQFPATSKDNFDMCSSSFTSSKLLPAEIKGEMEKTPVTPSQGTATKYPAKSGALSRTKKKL
# Starred values were filed as active, the others as inactive. This is a subset, and most or all hits are left out here.
> Fc1ccccc1-c1nc(-c2ccc(Br)o2)no1
  STK33 inh = -0.3
> CCn1cc([N+](=O)[O-])c(C(=O)N2N=C(c3ccccc3)CC2c2ccc([N+](=O)[O-])cc2)n1 (stereo unspecified)
  STK33 inh = 0.4
> CCCCNC(=S)NCC(c1ccccc1)c1c[nH]c2ccccc12 (stereo unspecified)
  STK33 inh = 0.3
> O=C(c1ccc(F)cc1)N1CCN(C(=O)c2cccnc2)CC1
  STK33 inh = -2.0
> O=C1CS/C(=N\N=C\c2ccco2)N1c1ccccc1
  STK33 inh = -1.3
> Cc1nnc(SC(C(=O)c2ccccc2)c2ccccc2)[nH]c1=O (stereo unspecified)
  STK33 inh = -0.6
> CCOc1c(C=C(C#N)C#N)c2ccccc2n1CC
  STK33 inh = 1.9
> O=C(NCC1CCCO1)Nc1cccc(Cl)c1 (stereo unspecified)
  STK33 inh = -0.2
> O=C(CSc1ncccn1)NC(=O)Nc1ccc2c(c1)OCCO2
  STK33 inh = 1.0
> O=C(CC1C(=O)NCCN1C(=O)Nc1ccccc1)Nc1cc(Cl)cc(Cl)c1 (stereo unspecified)
  STK33 inh = -1.0
> CCc1nnc(NC(=O)CSc2nnc(Cc3ccccc3)n2-c2ccccc2)s1
  STK33 inh = 0.1
> COc1cccc(CN(Cc2ccco2)C(c2ccc(F)cc2)c2nnnn2C(C)(C)C)c1 (stereo unspecified)
  STK33 inh = -0.3
> OCCC1CN(Cc2cccc(OC3CCCC3)c2)CCN1Cc1ccsc1 (stereo unspecified)
  STK33 inh = -1.2
> C=CCn1c(SCc2nc3scc(-c4ccccc4)c3c(=O)[nH]2)nnc1-c1ccccc1F
  STK33 inh = -2.6
> COc1cc(SC)ccc1C(=O)NCCc1c[nH]c2ccccc12
  STK33 inh = -0.6
> CCN(C(=O)COC(=O)c1cccnc1Nc1cccc(C(F)(F)F)c1)C1CCS(=O)(=O)C1 (stereo unspecified)
  STK33 inh = -0.9
> CC(=O)N1CCN(c2ccc(OC[C@H]3CO[C@](Cn4ccnc4)(c4ccc(Cl)cc4Cl)O3)cc2)CC1
  STK33 inh = -1.1
> Clc1ccc2nc(-c3cccc(SC4CCCCC4)c3)c(NCc3ccccc3)n2c1
  STK33 inh = 0.1
> CCOC(=O)Cn1nc(C)c(NC(=O)COc2ccc(C)c(C)c2)c1C
  STK33 inh = -0.1
> O=[N+]([O-])c1ccc(-c2nc(NCc3cccnc3)c3ccccc3n2)cc1
  STK33 inh = -0.3
> CN(C(=O)COC(=O)c1sc2ccccc2c1Cl)C1CCCCC1
  STK33 inh = -2.9
> O=C(O)COc1ccccc1/C=N/NC(=O)CNC(=O)c1ccc(F)cc1
  STK33 inh = -1.2
> CSc1nc(-c2ccco2)nn1C(=O)c1ccco1
  STK33 inh = -2.8
> O=C(O)CCc1ccc(-c2cccs2)n1NC(=O)c1ccccc1Br
  STK33 inh = 1.2
> Cn1c(=O)c2c(nc(NCc3ccc4c(c3)OCO4)n2C)n(C)c1=O
  STK33 inh = -5.3

> CC(C)C(=O)Nc1ccc(Cc2ccc(NC(=O)C(C)C)c(O)c2)cc1O
  STK33 inh = -1.2
> CN(C(=O)c1ccncc1)c1nnc(-c2cnccn2)s1
  STK33 inh = -2.8
> CCOC(=O)N1CCC(NC(=O)C2CCN(S(=O)(=O)c3c(C)noc3C)CC2)CC1
  STK33 inh = 0.7
> CNc1cnn(-c2ccc(C)cc2)c(=O)c1Sc1ccc(C)cc1
  STK33 inh = 0.1
> Cn1c(=O)c2c(nc(N3CCCCC3)n2CCSc2nc3ccccc3s2)n(C)c1=O
  STK33 inh = 0.0
> COc1ccccc1N1CCN(C(=O)c2cc(-c3ccc(Cl)c(Cl)c3)on2)CC1
  STK33 inh = -1.3
> COCCNC(=O)CSc1ccccc1C(=O)NCC1CCCCC1
  STK33 inh = -0.7
> O=C(O)/C=C/C(=O)Nc1ccc(S(=O)(=O)Nc2nccs2)cc1
  STK33 inh = -3.2
> C#CCOc1ccc(Br)cc1/C=N/O
  STK33 inh = -0.8
> CN(C)S(=O)(=O)N(CC(=O)Nc1ccc(F)c(F)c1)c1ccccc1
  STK33 inh = 0.3
> Cc1ccccc1NS(=O)(=O)c1ccc(NC(=O)CSCc2ccc(Br)cc2)cc1
  STK33 inh = 0.6
> COc1cccc(NC(=O)CN(C)C(=O)c2ccc3ccccc3c2)c1
  STK33 inh = -0.8
> CCOc1ccc(N(C(=O)CNC(=O)c2ccco2)C(C(=O)NCC2CCCO2)c2ccccc2)cc1 (stereo unspecified)
  STK33 inh = -0.9
> CCOc1ccc(NS(=O)(=O)c2ccc(NS(=O)(=O)c3cccs3)cc2)cc1
  STK33 inh = 0.9
> c1ccc(C2(c3ccccc3)OCC(Cn3cncn3)O2)cc1 (stereo unspecified)
  STK33 inh = 0.7
> COc1ccc(/C=C2\SC(=O)N(CC(=O)NNC(=O)c3ccccc3O)C2=O)cc1
  STK33 inh = 0.6
> NC(=O)[C@H]1CC2(CC(c3cccc(NC(=O)COc4ccc(Cl)cc4)c3)=NO2)CN1C(=O)c1ccc(Cl)cc1 (stereo partly specified)
  STK33 inh = -1.1
> O=C1[C@@H]2[C@H]3CC[C@H](C3)[C@@H]2C(=O)N1O
  STK33 inh = -0.5
> COC(=O)CCc1sc(Nc2ccccc2)nc1-c1ccc(OC)cc1
  STK33 inh = -0.8
> COc1cc(NC(=O)CN2C(=O)NC(C)(c3ccc4ccccc4c3)C2=O)c(C)cc1[N+](=O)[O-] (stereo unspecified)
  STK33 inh = 0.5
> CN1C(=O)C2ON(c3ccccc3)C(c3cccs3)C2C1=O (stereo unspecified)
  STK33 inh = -1.4
> CCOC(=O)C1=C(c2ccccc2)N=C2SCC(=O)N2C1c1ccc2c(c1)OCO2 (stereo unspecified)
  STK33 inh = -1.3
> COc1cc(C(C)=O)ccc1OCc1cc(C(=O)N(C)CCC2CCCCO2)no1 (stereo unspecified)
  STK33 inh = -0.1
> CCN(CC(=O)Nc1cc(C)c(Cl)cc1OC)CC(=O)NC1CCS(=O)(=O)C1 (stereo unspecified)
  STK33 inh = -1.0
> CC(C(=O)NC1=NCCS1)N1C(=O)C2CC=CCC2C1=O (stereo unspecified)
  STK33 inh = -1.0

> CCOc1ccc(OCCCC(=O)NCCOc2ccccc2OC)cc1
  STK33 inh = -1.0
> COc1ccccc1C(=O)N/C(=C\c1ccc(Br)cc1)C(=O)NCC(=O)O
  STK33 inh = -1.4
> CN(C(=O)CC1C(=O)NCCN1Cc1ccc(F)c(F)c1)C1CCOCC1 (stereo unspecified)
  STK33 inh = -2.0
> CN(CC(=O)Nc1cccc(F)c1)C(=O)c1ccccc1CCc1ccccc1
  STK33 inh = -0.7
> Cc1nnc(-c2ccc(Oc3ccc(C)c(C)c3)c([N+](=O)[O-])c2)o1
  STK33 inh = 0.1
> COc1ccc2nc(NC(=O)c3ccccc3C(=O)O)sc2c1
  STK33 inh = 1.4
> CCc1ccc(NC(=O)C2CCCN(S(=O)(=O)c3cccnc3)C2)cc1 (stereo unspecified)
  STK33 inh = -0.8
> O=C(Cc1cccc2ccccc12)NNC(=O)c1ccc(Br)o1
  STK33 inh = -1.7
> CC1=C(SCCC#N)S/C(=C2\SC(C)=C(SCCC#N)S2)S1
  STK33 inh = 1.0
> COc1ccc(C)cc1NC(=O)C(=O)N/N=C(\C)CC(=O)Nc1cccnc1
  STK33 inh = 0.6
> COc1ccc(Cl)cc1NC(=O)CN(C)C(=O)CNC(=O)C12CC3CC(CC(C3)C1)C2
  STK33 inh = -1.9
> O=C(Nc1ccccc1)NC1CS(=O)(=O)CC1O (stereo unspecified)
  STK33 inh = 0.9
> O=C(COC(=O)CNS(=O)(=O)c1ccc2ccccc2c1)Nc1ccccc1Sc1ccccc1
  STK33 inh = 1.7
> O=C(c1ccccc1)N1CCC(O)(c2cccnc2)CC1
  STK33 inh = -1.6
> COc1ccc(C(=O)NCC(=O)N2CCNC(=O)C2)cc1OC
  STK33 inh = 1.8
> NC(=O)C1(N2CCCCC2)CCN(S(=O)(=O)c2cc(Cl)ccc2Cl)CC1
  STK33 inh = -0.5
> Cc1cc(Cl)c(S(=O)(=O)N2CCN(c3ccccn3)CC2)cc1OCC(=O)NC1CCCCC1
  STK33 inh = -0.4
> Cc1cc(C)c(NC(=O)/C=C\C(=O)O)c([N+](=O)[O-])c1
  STK33 inh = -2.3
> COc1ccc(S(=O)(=O)Nc2ccc3oc(C)c(C(C)=O)c3c2)cc1
  STK33 inh = -2.7
> CC1(C)C2CCC1(C)C(OC(=O)CCn1ccnc1)C2 (stereo unspecified)
  STK33 inh = 0.0
> CCOC(=O)/C(C#N)=C1\SS/C(=C(/C#N)C(=O)OCC)S1
  STK33 inh = 0.2
> O=C(Cc1ccccc1)Nn1cnc2ccccc21
  STK33 inh = -2.5
> COC(=O)c1c(C)nn(-c2ccc(OC(F)(F)F)cc2)c1-c1snnc1C
  STK33 inh = 1.6
> COc1ccc(-c2nc3ccc(C(=O)NCC(OC)OC)cc3nc2-c2ccc(OC)c(OC)c2)cc1OC
  STK33 inh = -5.4
> O=C(Nc1cc(S(=O)(=O)N2CCOCC2)ccc1Cl)c1cc(=O)c2ccccc2o1
  STK33 inh = -3.6
> CCN(CC)CC(C)OC(=O)c1cc(OC)c(OC)c(OC)c1 (stereo unspecified)
  STK33 inh = 0.2
> CSc1ccccc1NC(=O)CSCc1ccc(Br)cc1
  STK33 inh = -0.7
> O=C(Nc1ccccc1N1CCCCC1)c1cccc([N+](=O)[O-])c1
  STK33 inh = 0.5

# Part of the list above, as tab-separated lines.
canonical_smiles	STK33 inh
CCc1ccc(NC(=O)C2CCCN(S(=O)(=O)c3cccnc3)C2)cc1 (stereo unspecified)	-0.8
O=C(Cc1cccc2ccccc12)NNC(=O)c1ccc(Br)o1	-1.7
CC1=C(SCCC#N)S/C(=C2\SC(C)=C(SCCC#N)S2)S1	1.0
COc1ccc(C)cc1NC(=O)C(=O)N/N=C(\C)CC(=O)Nc1cccnc1	0.6
COc1ccc(Cl)cc1NC(=O)CN(C)C(=O)CNC(=O)C12CC3CC(CC(C3)C1)C2	-1.9
O=C(Nc1ccccc1)NC1CS(=O)(=O)CC1O (stereo unspecified)	0.9
O=C(COC(=O)CNS(=O)(=O)c1ccc2ccccc2c1)Nc1ccccc1Sc1ccccc1	1.7
O=C(c1ccccc1)N1CCC(O)(c2cccnc2)CC1	-1.6
COc1ccc(C(=O)NCC(=O)N2CCNC(=O)C2)cc1OC	1.8
NC(=O)C1(N2CCCCC2)CCN(S(=O)(=O)c2cc(Cl)ccc2Cl)CC1	-0.5
Cc1cc(Cl)c(S(=O)(=O)N2CCN(c3ccccn3)CC2)cc1OCC(=O)NC1CCCCC1	-0.4
Cc1cc(C)c(NC(=O)/C=C\C(=O)O)c([N+](=O)[O-])c1	-2.3
COc1ccc(S(=O)(=O)Nc2ccc3oc(C)c(C(C)=O)c3c2)cc1	-2.7
CC1(C)C2CCC1(C)C(OC(=O)CCn1ccnc1)C2 (stereo unspecified)	0.0
CCOC(=O)/C(C#N)=C1\SS/C(=C(/C#N)C(=O)OCC)S1	0.2
O=C(Cc1ccccc1)Nn1cnc2ccccc21	-2.5
COC(=O)c1c(C)nn(-c2ccc(OC(F)(F)F)cc2)c1-c1snnc1C	1.6
COc1ccc(-c2nc3ccc(C(=O)NCC(OC)OC)cc3nc2-c2ccc(OC)c(OC)c2)cc1OC	-5.4
O=C(Nc1cc(S(=O)(=O)N2CCOCC2)ccc1Cl)c1cc(=O)c2ccccc2o1	-3.6
CCN(CC)CC(C)OC(=O)c1cc(OC)c(OC)c(OC)c1 (stereo unspecified)	0.2
CSc1ccccc1NC(=O)CSCc1ccc(Br)cc1	-0.7
O=C(Nc1ccccc1N1CCCCC1)c1cccc([N+](=O)[O-])c1	0.5
